Six1-Eya2 inh = qHTS Assay for Inhibitors of the Six1/Eya2 Interaction; AID 651725, 2012; AlphaScreen GST-Six1/His-Eya2 binding, biochemical; stronger effect = lower value; control for the full effect not named in the record; activity change, % (test concentration not listed); Homeobox protein SIX1 (Homo sapiens) + Protein phosphatase EYA2 (Homo sapiens), …; 0.56% of 360,000 active; in the data active = activity change below about -65%; inconclusive = about -30% to -65%; inactive = above about -30%; further: on the % scale 0 is the no-effect control and ±100 the full control effect; compound concentration not given in the record
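Six1/Eya2 binding was read as AlphaScreen signal after compounds were pinned into GST-Six1 plus His-tagged Eya2 (5X stock 250/500 nM) in pH 8.0 Tris/NaCl/TCEP buffer, beads added, then incubated 1 h, 37 C, dark.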
D2 agonist = Beta-Arrestin HTS for Positive Allosteric Modulators of the Human D2 Dopamine Receptor: Agonists; D(2) dopamine receptor (Homo sapiens), P14416; DiscoveRx PathHunter D2 beta-arrestin, luminescence, 90 min; 100% = 57 uM dopamine signal; activation, % (test concentration not listed); 0.084% of 360,000 active; AID 624465, 2012; in the data active = activation above about 40%; inconclusive = about 15% to 40%; inactive = below about 15%; further: compound concentration not given in the record; the text of the record calls up to 30% inactive
Target sequence (P14416 whole entry, looked up): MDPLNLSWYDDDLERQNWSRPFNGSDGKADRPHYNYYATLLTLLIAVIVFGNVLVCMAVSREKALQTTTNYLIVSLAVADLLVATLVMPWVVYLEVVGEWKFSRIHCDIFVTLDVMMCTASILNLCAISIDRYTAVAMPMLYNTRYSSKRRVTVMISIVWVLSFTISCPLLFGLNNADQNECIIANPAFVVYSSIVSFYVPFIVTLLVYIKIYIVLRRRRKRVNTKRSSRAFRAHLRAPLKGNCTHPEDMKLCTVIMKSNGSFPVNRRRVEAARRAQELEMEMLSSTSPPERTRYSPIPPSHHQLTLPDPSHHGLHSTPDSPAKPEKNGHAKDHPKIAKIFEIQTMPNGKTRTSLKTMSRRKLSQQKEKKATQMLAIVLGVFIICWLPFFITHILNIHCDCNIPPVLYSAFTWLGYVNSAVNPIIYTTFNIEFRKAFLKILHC
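DiscoveRx PathHunter D2 beta-arrestin cells (2,100/well) attached overnight, then compound-stimulated 90 min at 37 C in HBSS/10 mM HEPES/0.1% Tween-20 buffer; beta-galactosidase complementation read by luminescence after 1 h at ambient temperature. Dopamine 57 uM final (EC100) as control.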
D2 potentiator = Beta-Arrestin HTS for Positive Allosteric Modulators of the Human D2 Dopamine Receptor: Potentiators; DiscoveRx D2 beta-arrestin cells, luminescence, 90 min; 100% = 57 uM dopamine signal; D(2) dopamine receptor (Homo sapiens), P14416; 0.23% of 360,000 active; potentiation, % (test concentration not listed); active = potentiation of 50% or more; inconclusive = 30% to 50%; inactive = 30% or less;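 further: compound concentration not given in the record; tested on top of an EC20 dose of dopamine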
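PathHunter D2 cells, attached overnight at 37 deg C, received compound in DMSO plus dopamine at EC20 (50 nM final) for 90 min at 37 deg C. Beta-arrestin recruitment was read as luminescence after 1 h with detection reagent at ambient temperature.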
PINK1 expr mod = A Quantitative High throughput Screen to Identify Chemical Modulators of PINK1 Expression | PINK1 immunofluorescence, high-content cytometry, 24 h | Potency, µM (titrated, usually from 76.6 µM), inactives show top-dose activation (PINK1 increase), most hits filed as activators | 0.2% of 410,000 active; active = well fitted activation curve with a large enough effect; inconclusive = small, poorly fitted or top-dose-only effect; inactive = flat fitted curve, though single readings scatter; cell line not stated here;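 further: potency means the concentration at half of the fitted maximal effect; % of control where 0% means no effect; nearly all actives have a fitted effect of over 65% in size; a mitochondrial uncoupler was the plate control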
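Stable cell line, 250 cells/well, 12 h attachment; compounds pinned at 5 concentrations, 24 h; CCCP control. Fixed with nuclear dye, primary antibodies 12 h at 10 degrees C, secondary plus cell stain; laser-scanning cytometer read.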
TRPML1 ag = qHTS for Agonists of the Human Mucolipin Transient Receptor Potential 1 (TRPML1) | TRPML1-expressing cells, Ca2+ dye fluorescence, FDSS; host cell line not named in the record; reference of the full effect not given here | activation, % (test concentration not listed) | 0.12% of 410,000 active | AID 624414, 2012; in the data active = activation above about 50%; inconclusive = about 30% to 50%; inactive = below about 30%; further: 0% is about no effect; the text of the record puts the active cut at 80%
Target sequence (Q9GZU1 whole entry, looked up): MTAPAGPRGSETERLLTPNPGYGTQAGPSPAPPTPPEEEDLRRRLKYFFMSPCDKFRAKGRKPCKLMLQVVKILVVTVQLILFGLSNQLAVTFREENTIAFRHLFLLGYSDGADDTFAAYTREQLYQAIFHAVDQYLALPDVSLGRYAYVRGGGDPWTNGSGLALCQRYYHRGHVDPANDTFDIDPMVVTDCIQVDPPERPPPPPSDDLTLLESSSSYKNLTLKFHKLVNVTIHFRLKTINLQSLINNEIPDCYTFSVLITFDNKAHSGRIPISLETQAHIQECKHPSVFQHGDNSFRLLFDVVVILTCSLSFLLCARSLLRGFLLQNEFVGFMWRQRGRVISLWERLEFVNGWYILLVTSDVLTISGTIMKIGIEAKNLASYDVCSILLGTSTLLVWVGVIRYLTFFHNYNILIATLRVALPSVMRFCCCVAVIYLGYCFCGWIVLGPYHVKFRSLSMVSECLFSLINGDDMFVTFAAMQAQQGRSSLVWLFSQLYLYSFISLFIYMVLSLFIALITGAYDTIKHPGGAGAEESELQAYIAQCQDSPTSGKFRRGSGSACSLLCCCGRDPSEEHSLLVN
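TRPML1-DL cells, Tet-induced overnight (~16 h, 37 degrees C), loaded 45-90 min at room temperature with Ca8 no-wash calcium dye plus quencher. FDSS fluorescence: 10 s baseline, compound pin-transfer, 110 s agonist read, then EC80 54-4 (4uM final) and 110 s antagonist read.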
CtBP-E1A blk = qHTS Assay for Inhibitors of the CtBP/E1A Interaction | CtBP / adenovirus E1A interaction (AlphaScreen) | AlphaScreen GST-E1A/His-CtBP binding, 1536-well; stronger effect = lower value; control for the full effect not named in the record | activity change, % (no concentration beside the values) | 0.49% of 340,000 active; in the data active means activity change below about -65%; inconclusive means about -30% to -65%; inactive means above about -30%; further: on the % scale 0 is the no-effect control and ±100 the full control effect; compound concentration not given in the record
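GST-E1A and His-tagged CtBP (125 nM each as 5X stock) were preincubated with pin-transferred compound for 2 h at 37 °C in the dark, then glutathione donor and nickel acceptor beads were added for 1 h before AlphaScreen reading.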
Numbers without * were called inactive; ? = inconclusive; · = no result given; [ ] = remark or other dose.

SMILES | Six1-Eya2 inh | D2 agonist | D2 potentiator | PINK1 expr mod | TRPML1 ag | CtBP-E1A blk
O=C(Cc1ccc(-c2ccccc2)cc1)NCCN1CCOCC1 | 3.0 | -2.0 | -18.0 | 1.9% | -0.2 | -7.0
Nc1nonc1C(=O)N/N=C/c1cccc([N+](=O)[O-])c1 | -0.8 | -1.5 | -2.6 | 1.2% | -0.8 | 6.9
COC(=O)C1=C(C)OC(N)=C(C#N)C1c1cc(OC)c(OCC(N)=O)cc1Cl (stereo not drawn) | -2.5 | 1.0 | 1.5 | -1.6% | -0.6 | -1.9
CCOC(=O)CC(NC(=O)CCS(=O)(=O)c1ccc2c(c1)n(C)c(=O)c(=O)n2C)c1ccc(C)cc1 (stereo not drawn) | -1.8 | -0.9 | -0.5 | -0.1% | -0.5 | 0.0
C/C=C/C(=O)OCC(=O)NC(=O)NC(C)C | 2.5 | -3.6 | -4.8 | 0.9% | -1.0 | 10.8
COc1c(S(=O)(=O)NCCN2CCOCC2)ccc(Cl)c1Cl | 6.0 | 0.1 | -10.6 | 3.1%[38.3 µM] | 0.7 | -0.4
CC(=O)c1cn(CC(=O)Nc2c(C)cccc2C)c2ccccc12 | 1.3 | -4.1 | 9.8 | -1.1% | 1.4 | 2.4
Cc1cc(NC(=O)c2cc3nc(C4CC4)cc(C(F)(F)F)n3n2)no1 | -2.4 | -4.0 | 1.5 | 4.1% | -0.4 | -5.5
CCC(C)[C@H](NC(=O)NCc1cccc(OC)c1)C(=O)O (stereo partly drawn) | 8.6 | 0.5 | -3.0 | ? | 0.6 | 10.8
O=C(NCCc1ccccn1)c1cc(-c2ccc(Cl)cc2)nc2ccccc12 | -2.1 | -1.8 | -14.6 | 1.2% | 4.7 | -2.8
O=C(O)CCC(=O)N1CCOc2ccc(Cl)cc21 | -10.7 | -0.9 | -23.4 | -0.8% | 1.5 | -2.6
Cc1cccc2nc(Cn3c(=O)n(CCC(=O)NCc4ccco4)c(=O)c4sccc43)cc(=O)n12 | 0.7 | 2.0 | -8.8 | ? | 0.1 | -0.7
c1ccc(CC(Cc2ccccc2)c2ccccn2)cc1 | 15.8 | 1.0 | -6.3 | 12.8% | 2.5 | 27.3
CCOC(=O)[C@H]1[C@H]2COc3ccc(Cl)cc3[C@@H]2N2C(=O)c3cc(F)c(F)cc3NC(=O)[C@@]12C | -13.3 | -3.1 | -9.1 | 0.9% | 0.2 | -17.7
CC(Sc1nc(N)cc(N)n1)C(=O)Nc1ccc(N2CCOCC2)cc1 (stereo not drawn) | -0.2 | 6.6 | -0.9 | -0.4% | 1.9 | 0.5
CCOc1ccc(S(=O)(=O)N2Cc3ccccc3CC2C(=O)O)cc1 (stereo not drawn) | 18.3 | 6.6 | 2.8 | 1.0% | · | 12.1
COc1ccc(S(=O)(=O)N2Cc3ccccc3CC2C(=O)O)cc1 (stereo not drawn) | -9.1 | 3.3 | -10.0 | · | -0.3 | -9.7
O=C(CCC(=O)N1CCN(c2ccccc2F)CC1)c1ccc(Cl)s1 | 4.2 | -4.8 | -19.3 | 0.9% | 0.9 | -12.0
Nn1c(=O)[nH]c2c([nH]c3ccccc32)c1=O | -0.7 | 1.9 | 4.0 | 1.5% | -0.6 | -13.5
CC(/C=N/NC(=O)C(O)c1ccccc1)=C\c1ccccc1 (stereo not drawn) | -12.4 | -1.8 | -13.2 | -2.4%[38.3 µM] | -0.7 | -7.4
CCN(CC)CC(=O)Nc1cccc(S(=O)(=O)N2CCCC2)c1 | 7.2 | 1.1 | -2.9 | -0.6% | 0.3 | -7.5
Cc1ccc(-c2nnc(SCC(=O)N/N=C/c3ccccc3C(=O)O)n2C2CCCCC2)cc1 | -2.5 | -7.2 | -6.2 | 0.8% | -0.9 | 0.4
CCc1cccc(C)c1NC(=S)NCC(c1cccnc1)N1CCOCC1 (stereo not drawn) | 0.1 | -2.9 | -21.5 | 1.3% | 0.6 | -3.3
Cc1ccc(S(=O)(=O)n2nc(-c3ccco3)nc2N)cc1 | 1.1 | -23.6 | -6.8 | 0.9% | -1.0 | -3.9
Clc1ccc(N2CCN(/N=C/c3cccnc3)CC2)cc1 | -15.1 | 3.4 | -9.5 | 0.3% | · | -4.5

Among those listed so far, these contain fluorine:
SMILES | Six1-Eya2 inh | D2 agonist | D2 potentiator | PINK1 expr mod | TRPML1 ag | CtBP-E1A blk
Cc1cc(NC(=O)c2cc3nc(C4CC4)cc(C(F)(F)F)n3n2)no1 | -2.4 | -4.0 | 1.5 | 4.1% | -0.4 | -5.5
CCOC(=O)[C@H]1[C@H]2COc3ccc(Cl)cc3[C@@H]2N2C(=O)c3cc(F)c(F)cc3NC(=O)[C@@]12C | -13.3 | -3.1 | -9.1 | 0.9% | 0.2 | -17.7
O=C(CCC(=O)N1CCN(c2ccccc2F)CC1)c1ccc(Cl)s1 | 4.2 | -4.8 | -19.3 | 0.9% | 0.9 | -12.0

Next part.
SMILES | Six1-Eya2 inh | D2 agonist | D2 potentiator | PINK1 expr mod | TRPML1 ag | CtBP-E1A blk
CCOC(=O)C1=NN(c2ccc(C)cc2)CC1C(=O)OC (stereo not drawn) | 24.7 | -0.4 | -18.0 | 1.7% | 3.5 | 31.3
Cc1ccc(SCCCn2cnc3ccccc3c2=O)cc1 | 9.7 | -1.7 | 10.8 | 1.0% | -0.2 | -0.5
COc1ccc(CC(=O)N2CCN(c3ccc(F)cc3)CC2)cc1 | -4.0 | -2.6 | -3.0 | -1.0% | -0.3 | 2.0
Cc1ccccc1-n1nc2c(c1NC(=O)/C=C\c1ccc3c(c1)OCO3)CSC2 | -18.7 | 3.4 | -1.8 | -0.6% | -1.2 | -0.2
C[C@@H]1CN([C@@H](C)CO)C(=O)c2cc(Br)cnc2O[C@H]1CN(C)C(=O)Nc1ccc(F)cc1 | 5.6 | -3.1 | 2.7 | 1.2% | -0.3 | 6.1
CN(C)c1cc(NC(=O)CNC(C)(C)CC(C)(C)C)c2ccccc2n1 | 10.9 | -3.4 | -11.4 | ? | 1.5 | 11.8
CC(C)c1cc(C(F)(F)F)nc(NNc2nc(C(C)C)cc(C(F)(F)F)n2)n1 | -3.9 | -3.2 | 3.5 | 14.8% | 1.3 | 10.4
Cc1cccc(OCc2nnc(SCC(=O)N3CCN(c4ccccc4)CC3)o2)c1C | -1.2 | 1.8 | -1.0 | 0.3% | -0.9 | -1.6
COc1ccc(Nc2oc(COc3ccccc3F)nc2C#N)cc1 | -9.4 | 1.7 | 0.7 | 4.4% | 0.0 | -0.9
C[C@@H](O)CNC(=O)c1[nH]cnc1C(=O)Nc1cccc(Cl)c1 | 5.5 | -2.8 | -10.6 | 0.6% | -0.2 | -2.2
CC12CCC(C(=O)N(c3ccccc3Cl)C1=O)C2(C)C (stereo not drawn) | 7.4 | 2.8 | 6.1 | -0.6% | -0.5 | 11.2
CC(C)NC(=O)NC(=O)COc1ccc(Br)cc1Br | -2.5 | -1.5 | -18.4 | 3.6% | 2.2 | 4.6
CCSCCCn1[nH]c2ccccc2c1=O | -3.0 | 5.0 | 8.9 | -0.2% | -0.3 | 0.6
CCOCCn1c(=O)c2c(nc3n2CCN3c2ccc(C)cc2)n(C)c1=O | -7.5 | -1.3 | 0.5 | 6.8% | 0.5 | -0.1
CC(C)Oc1ccc(C(=O)NCc2cccs2)cc1 | 2.0 | -2.1 | 1.6 | 3.2%[38.3 µM] | 0.2 | 7.7
CC(C)n1c(O)c(/C=C2\C=NN=C2c2ccccc2)sc1=S | -23.0 | -1.2 | -3.7 | -1.1% | 0.0 | -15.3
COc1ccc(N(CC(=O)NC2CCCCC2)C(=O)CCCC(=O)Nc2ccccn2)cc1 | -3.2 | -1.8 | -0.4 | 0.7% | -0.3 | 7.4
Cc1cc(SCC(=O)N/N=C/c2ccccc2C(=O)O)c(C)cc1Br | -11.1 | -5.7 | -5.1 | -0.4% | 1.8 | -8.9
COc1ccc(OC)c(NC(=O)CCN2CCN(C)CC2)c1 | 3.1 | 4.4 | -0.2 | 1.8% | -1.2 | ·
CC(C)(C)c1cc(N2CCOCC2)n2ncc(-c3ccc(Cl)cc3)c2n1 | 0.3 | -2.2 | -1.2 | ? | -0.6 | 18.0
CCN(C(=O)COC(=O)c1ccc2[nH]c3c(c2c1)CCCC3)C1CCS(=O)(=O)C1 (stereo not drawn) | 4.7 | 8.2 | 2.3 | 0.2% | -0.5 | 0.0
Cc1cc(C)cc(NC(=O)CCc2c(C)nn(-c3ccc(N4CCCCC4)nn3)c2C)c1 | -0.5 | -2.0 | 3.3 | 2.0% | -0.5 | ·
O=[N+]([O-])c1ccc(CN2CCN(c3ccc4ccccc4n3)CC2)cc1 | -15.8 | -1.2 | -12.3 | 2.2% | 2.1 | -6.5
COc1cccc(-c2noc(C3CCCN(S(=O)(=O)c4cccc(Cl)c4C)C3)n2)c1 (stereo not drawn) | 7.2 | -3.3 | -9.0 | 1.6%[38.3 µM] | 2.0 | 20.0
COc1ccc(NCC(=O)N/N=C(\C)c2cc3ccccc3o2)cc1 | -19.9 | 2.4 | -5.1 | -1.9% | 1.6 | -19.6
Other entries.
SMILES | Six1-Eya2 inh | D2 agonist | D2 potentiator | PINK1 expr mod | TRPML1 ag | CtBP-E1A blk
O=C(COc1ccc(S(=O)(=O)N2CCOCC2)cc1Cl)NC1CC1 | 4.0 | -5.9 | 1.4 | 1.8% | -0.6 | -11.4
O=C(NC1(C(F)(F)F)N=C(c2ccccc2)NC1=O)c1ccccc1F (stereo not drawn) | 4.6 | -4.4 | -7.6 | -1.1% | -0.6 | 5.3
CC1(C)SC2c3ccccc3C(=O)N2C1C(=O)O (stereo not drawn) | 13.1 | -6.2 | -10.3 | -0.1% | 0.3 | -9.3
CC(=O)OCC(OC(C)=O)C(OC(C)=O)C(OC(C)=O)C(=O)Nc1ccccc1 (stereo not drawn) | 2.0 | -0.2 | -4.0 | 0.9% | 0.2 | 4.3
CN(CCOCCOc1ccc2ccccc2c1)Cc1ccccc1 | -4.9 | -4.8 | -42.8 | -0.7% | -0.6 | -0.4
CN(CCCn1cnc2c(OCc3ccccc3)ncnc21)Cc1ccco1 | -4.4 | -2.1 | -1.1 | 6.1% | 1.2 | 6.1
COc1ccc(Br)cc1/C=C/C(=O)Nc1ccc2ccccc2c1 | -8.0 | -0.5 | -9.3 | 4.2% | 1.8 | -3.0
OCC1OC(c2ccc(O)cc2O)C(O)C1O (stereo not drawn) | 4.1 | · | · | 0.4% | -0.1 | 6.7
CC1=NN2C(=N)/C(=C\c3cc(C)n(-c4cccc(C)c4)c3C)C(=O)N=C2S1 | 6.4 | -5.6 | -5.2 | 13.9% | -0.6 | 0.8

Screening data deposited in PubChem by National Center for Advancing Translational Sciences (NCATS).

This is a random part of the collection (roughly 1.3% active in at least one column).
